KSHV LANA nucl = LANA-nucleosome interaction inhibition. 51,000 tested, 0.3% active. z-score (no concentration beside the values). FITC-LANA1-23 / chicken nucleosome fluorescence polarization; hits give low values. AID 720717;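 active means both repeat wells score below -2 in polarization z-score versus plate sample wells, excluding overly bright wells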;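 further: 100 nL library stock added to about 30 µL; numbers are from one replicate; some results filed as inactive read as strong as hits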
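Material: Purified chicken nucleosomes with FITC-labelled LANA N-terminal peptide (1-23) | Reagent: 50 nM FITC-LANA1-23 probe | Medium: TEN-BT buffer, pH 7.5 | Times: 10–45 min incubation at room temperature | Detection: Fluorescence polarization | Replication: Duplicates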
BasE inh = inhibitors of Acinetobacter baumannii siderophore enzyme BasE; purified BasE, fluorescence polarization binding displacement; inhibition, % (concentration not given with the values); 84,000 tested, 0.1% active;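 active means both replicates above 25% with normal brightness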;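 further: 0% = negative plate control signal and 100% = positive plate control signal; stock transfer was 100 nL into about 30 µL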
Numbers without * were called inactive; . = no result given; & = joins results of further samples.

Compound | KSHV LANA nucl | BasE inh
COC(=O)c1ccc(C)c(NC(=O)CC2CCCC2)c1 | . | 1.1
CCOc1ccccc1NC(=O)N1CCCN(c2ncccc2C#N)CC1 | . | 0.0
Cc1nc(SCc2ccccc2)nc2c1CCC2 | -0.429 | .
COC(=O)c1ccccc1NC(=O)C1CCN(S(=O)(=O)c2ccc(OC)c(OC)c2)CC1 | -0.032 | 0.4
Cc1nn(Cc2cccc(C(=O)Nc3nc4ccc(S(C)(=O)=O)cc4s3)c2)c(C)c1Cl | -0.282 | 1.3
Cc1cc(N2CCN(C)CC2)ccc1NC(=O)c1ccc(S(=O)(=O)Nc2ccccc2F)cc1 | . | -0.5
NC(=S)N/N=C(/C(=O)c1ccccn1)c1ccccn1 | . | 0.9
COC(=O)C1=CN(c2ccc(F)cc2)C=C(C(=O)OC)C1c1cccc(O)c1 | . | 0.6
c1ccc2c(c1)c1ccccc1n2CN1CCOCC1 | -0.366 | -0.2
CCOC(=O)c1cc(C)sc1/N=C/C1C(=O)CCCC1=O | . | 0.1

Single values from the list:
Result for CCOc1ccccc1NC(=O)N1CCCN(c2ncccc2C#N)CC1 in BasE inh: 0.0
Result for NC(=S)N/N=C(/C(=O)c1ccccn1)c1ccccn1 in BasE inh: 0.9
Result for Cc1nc(SCc2ccccc2)nc2c1CCC2 in KSHV LANA nucl: -0.429
Result for COC(=O)c1ccc(C)c(NC(=O)CC2CCCC2)c1 in BasE inh: 1.1

(cont.)
Compound | KSHV LANA nucl | BasE inh
Cc1ccc(-c2noc(=O)n2CC(=O)Nc2ccc(S(=O)(=O)N3CCCC3)cc2)cc1 | -0.447 | 1.4
COc1ccccc1CNC(=O)c1cccs1 | . | 3.2
Cc1cc(C(=O)COC(=O)c2cc(=O)[nH]c3ccccc23)c(C)n1C | . | -2.4
CC(=O)NC(=O)/C(C#N)=C/N1CCN(c2ccccc2)CC1 | 0.252 | 0.2
CCCc1ccc(C(=O)C(C)OC(=O)C2=NNC(=O)CC2)cc1 (stereo not given) | . | 2.1
Cc1nn(-c2ccccc2)c(C)c1C1NCCNC1=O (stereo not given) | . | -1.5
CCOC(=O)/C=C1\CCC=C1N1CCOCC1 | . | -0.1
COc1ccc(C2CCCCCN2)cc1 (stereo not given) | . | 0.6
Cc1c(S(=O)(=O)c2ccc(Cl)cc2)csc1C(=O)N(c1ccccc1)S(C)=O (stereo not given) | . | -1.7
O=C(CCCN1C(=O)NC2(CCCC2)C1=O)Nc1ccc2c(c1)OCCCO2 | . | 0.7
Cc1ccc2nc3c(c(N)c2c1)CCN3c1ccccc1 | 0.136 | -1.5
Cc1c(NC(=O)CN2CCC(C)CC2)c(=O)n(-c2ccccc2)n1C | . | 0.3
COc1cc2c(cc1OC)CN(CC(N)=O)CC2 | . | 0.7
CC(C)(C)C(=O)N(CCc1ccccc1)Cc1nc2ccccc2c(=O)[nH]1 | 0.941 | 0.6
Cc1coc2cc3oc(=O)c4c(c3cc12)CCCCC4 | 1.01 | 1.2
CCc1ccccc1NC(=O)Cn1ncc2c(=O)oc3ccccc3c21 | 0.126 | 0.9
CN(c1ccccc1)S(=O)(=O)c1ccc(C(=O)Nc2nccs2)cc1 | . | 1.6
CC1Oc2ccccc2N(CC(=O)NCC2CCCO2)C1=O (stereo not given) | -0.164 | 0.5
Fc1ccc(-c2ccc(NCc3ccccc3)nn2)cc1 | -0.269 | 0.3
Cc1ccc(-n2c(-c3nn(C)cc3Cl)n[nH]c2=S)cc1 | . | 2.0
CC(C)Cn1c(SCC(=O)c2ccc(Cl)s2)nnc1-c1ccco1 | . | -4.4
O=C(CSc1ccccn1)N1CCC(c2ccccc2)=N1 | . | 1.6
Cc1ccc(NC(=O)Cc2c(O)c3ccccc3[nH]c2=O)c(C)c1 | -0.251 | 3.4
CN1CCN(C(=O)c2ccc(C(C)(C)C)cc2)CC1 | -1.11 | 1.6
COc1ccc(C2/C(=C(\O)c3ccc(F)cc3)C(=O)C(=O)N2c2nnc(C)s2)cc1OC (stereo not given) | . | 2.3
COc1ccc(C)cc1NC(=O)CN1CCCC1c1ccc2c(c1)OCCCO2 (stereo not given) | . | 2.2
CC(=O)Nc1cc2ccc(OC(C)=O)cc2oc1=O | . | -0.4
C=CCn1c(SCC(=O)c2ccc(Cl)s2)nnc1-c1ccncc1 | . | -2.5
Cc1ccc(C)n1C(Cc1c[nH]c2ccccc12)C(=O)O (stereo not given) | 0.176 | 12.6
COc1cccc(-c2ncnn2-c2cccc(Cl)c2C)c1 | -0.18 | -1.1
Cc1cc(-c2ccc(C)c(S(=O)(=O)N3CCc4ccccc43)c2)on1 | . | -1.6
Cc1ccc(-c2cc(NC(=O)CN3CC(C(=O)N4CCOCC4)Oc4ccccc43)on2)cc1 (stereo not given) | . | -0.4
CCC(=O)NC1(Cc2ccc(O)cc2)CCCCC1 | 0.755 | -2.6
Cc1cc(N)ccc1-n1cnnn1 | -1.12 | 2.1
O=C(OCC(O)CO)c1ccccc1Nc1ccnc2cc(Cl)ccc12 (stereo not given) | 0.514&-0.808 | -4.4&-0.1
COC(=O)c1c(C)n(S(C)(=O)=O)c2ccc(NS(C)(=O)=O)cc12 | -0.867 | -0.5
CSc1nc2ccccc2n1Cc1ccccc1F | -0.96 | -0.1
COC(=O)c1ccc(C2C3=C(CC(c4ccco4)CC3=O)Nc3ccccc3N2C(=O)C2CC2)cc1 (stereo not given) | 0.693 | 0.2
CCN(CC(=O)Nc1ccc(N2CCOCC2)cc1)CC(=O)Nc1cc(C)on1 | . | 0.6
Cc1cc(=O)oc(C)c1C(=O)NCCC1=CCCCC1 | -0.976 | 0.9
COc1ccc2c(CN3c4ccccc4CC3C)cc(=O)oc2c1 (stereo not given) | . | 4.6
Cc1sc(/N=C/c2cn(Cc3ccccc3)c3ccccc23)c(C#N)c1C | . | 1.1
CCN1CCN(CCNC(=O)c2cc(-c3ccccc3)c(N3CCOCC3)s2)CC1 | 2.11 | 0.7
CC1C(O)CC(c2ccccc2)N(C)C1c1ccccc1 (stereo not given) | -0.248 | .
Cc1cc(C)nc(SCc2ccc(-c3nnc4n3CCCCC4)cc2)n1 | . | -2.7
O=C(CSc1ncc(C(F)(F)F)cc1Cl)c1ccc(O)cc1O | . | -1.6
CC1OC(O[C@H]2/C=C/C=C/C=C/C=C/C=C/C=C/C=C/[C@H](C)[C@@H](O)[C@@H](C)[C@H](C)OC(=O)C[C@H](O)C[C@H](O)CC[C@@H](O)[C@H](O)C[C@H](O)C[C@]3(O)C[C@H](O)[C@@H](C(=O)O)[C@H](C2)O3)C(O)C(N)C1O (stereo not given in full) | 1.07 | -5.6
O=C1N(CCc2ccccc2)c2ccccc2C12OCCCO2 | 0.927 | -2.1
CCOC(=O)/C=C1\CCCCCN1 | . | 2.2
CN(C(=O)c1ccccc1)c1ccc(OCC(=O)NC2CCS(=O)(=O)C2)cc1 (stereo not given) | . | -0.4

Record cards, as listed above:
Listed for CC1C(O)CC(c2ccccc2)N(C)C1c1ccccc1 (stereo not given) : KSHV LANA nucl: -0.248; BasE inh: .
Listed for CC1OC(O[C@H]2/C=C/C=C/C=C/C=C/C=C/C=C/C=C/[C@H](C)[C@@H](O)[C@@H](C)[C@H](C)OC(=O)C[C@H](O)C[C@H](O)CC[C@@H](O)[C@H](O)C[C@H](O)C[C@]3(O)C[C@H](O)[C@@H](C(=O)O)[C@H](C2)O3)C(O)C(N)C1O (stereo not given in full) : KSHV LANA nucl: 1.07; BasE inh: -5.6

An excerpt from above in order of molecular weight, ascending:
Compound | KSHV LANA nucl | BasE inh
O=C(CSc1ccccn1)N1CCC(c2ccccc2)=N1 | . | 1.6
CCN(CC(=O)Nc1ccc(N2CCOCC2)cc1)CC(=O)Nc1cc(C)on1 | . | 0.6
CCN1CCN(CCNC(=O)c2cc(-c3ccccc3)c(N3CCOCC3)s2)CC1 | 2.11 | 0.7

Next results
Compound | KSHV LANA nucl | BasE inh
Cc1ccc(Nc2cc(=O)[nH]n2C)cc1Cl | . | -3.6
CNC(=O)C1CCCN(c2nnc(-n3c(C)ccc3C)s2)C1 (stereo not given) | 0.339 | 1.9
Cc1csc(OCC(=O)Nc2ccc(C)c(C)c2)n1 | . | 4.7
COc1ccc(C(=O)OCC(=O)NC2CC2)cc1 | . | 0.8
COc1ccc(CCNC(=O)C2CCCN(c3nc4ccccc4o3)C2)cc1OC (stereo not given) | -0.184 | 3.2
COC(=O)c1cnc(N2CCCN(S(=O)(=O)c3cccc4nonc34)CC2)nc1C(F)(F)F | 0.929 | -1.7
CCOc1ccc(NC(=S)NCC2CCCO2)cc1 (stereo not given) | 0.141 | 0.8
CCN(CC)CC(=O)N1N=C(c2cccs2)CC1c1ccco1 (stereo not given) | -0.159 | -0.5
CCOC(=O)c1cc(-c2ccccc2)sc1NC(=O)COC(=O)c1ccco1 | . | 0.1
C=CCn1c(=O)c2ccccc2n2c(SCC)nnc12 | . | 1.3
Cc1c(C#N)c2ccccn2c1C(=O)NN | . | 0.4
Cc1n[nH]c(C)c1Cc1ccc(N)cc1 | -0.217 | 4.1
CN1CCN(CCC(O)COc2ccc(OCC(O)CCN3CCN(C)CC3)cc2)CC1 (stereo not given) | 0.413 | 0.9
O=C(CSCc1nc2scc(-c3cccs3)c2c(=O)[nH]1)Nc1nc2c(s1)CCCC2 | . | -1.4
CCCCC(C(=O)O)n1c(O)c(C2=c3ccccc3=NC2=O)sc1=S (stereo not given) | 0.55 | 3.5
Cc1nn(CCC#N)cc1/C=N/NC(=O)CSc1nc2ccccc2[nH]1 | . | -1.8
Cc1nnc(SCC(=O)N(C(C)C)C(C)C)[nH]c1=O | 0.541 | 1.7
Oc1ccc2ccccc2c1C(c1ccccc1)N1CCCCC1 (stereo not given) | 0.378 | .
CCn1c(SCC(=O)Nc2ccccc2SCC(N)=O)n[nH]c1=O | . | -0.4
CC(C)OC(=O)c1cc2c(ccn2C)n1CCC#N | 0.504 | 2.6
CCCn1c(NC(=O)[C@@H](NS(=O)(=O)c2ccccc2)C(C)C)nc2ccccc21 | . | 1.6
CCN(Cc1ccccc1)C(=O)c1cccc(N2C(=O)CCC2=O)c1 | -0.134 | 1.5
Cc1ccc(N=C2CSc3nnc(-c4cccnc4)n3N2)cc1 | 0.433 | -1.3
CCCCn1nc(C(=O)Nc2ccc3nc(C)sc3c2)ccc1=O | . | 2.0
CC(C)(C)n1c(-c2ccncc2)n[nH]c1=S | . | 1.3
CSc1nc(C)nc(Sc2ccccn2)c1C#N | -0.032 | 1.8
CCCN(C(=O)C1CC(=O)N(c2ccccc2C(C)CC)C1)C1CCS(=O)(=O)C1 (stereo not given) | . | 1.0
CC(OC(=O)Cc1coc2cc3c(cc12)CCC3)C(=O)Nc1ccc2c(c1)OCO2 (stereo not given) | . | -1.6
COC(=O)c1scc(C)c1S(=O)(=O)Nc1ccc(C)cc1 | . | 2.1
COc1ccc(-c2nnn(CC(=O)N(Cc3ccccc3)C(C)C(=O)NC3CCCC3)n2)cc1OC (stereo not given) | -0.0155 | -0.8
CSc1nc(-c2ccc(Cl)cc2)nn1S(=O)(=O)c1ccc(C)cc1 | 1.38 | -1.0
CCCN1C(=O)C(CC(=O)Nc2ccccc2)SC1=Nc1ccc(S(=O)(=O)N2CCOCC2)cc1 (stereo not given) | . | 0.7
CC(C)NS(=O)(=O)c1ccc(OCC(=O)NC(C)(C)C)c(Cl)c1 | -0.783 | -1.6
COc1ccc2nc(NC(=O)CC(C)(C)C)sc2c1 | -0.711 | 0.8
CC(C)(C)C(=O)OC1OCCOC1OC(=O)C(C)(C)C (stereo not given) | . | -2.4
Cn1c(SCC(=O)c2ccc3c(c2)NC(=O)CO3)nc2ccccc21 | . | 0.8
Cc1ccc(SCCC(=O)N2CCN(c3ncc(C(F)(F)F)cc3Cl)CC2)cc1 | . | 16.4
CCC(=O)Nc1cccc(Br)c1 | 1.75 | -5.5
COC(=O)c1ccc(S(=O)(=O)NNc2ncnc3cc(C(C)(C)C)sc23)n1C | 0.764 | 0.7
COc1cc(NC(=S)N(C)C)cc(OC)c1 | -0.0785 | 0.0
COCCN(Cc1cc2cc3c(cc2nc1Cl)OCO3)C(=O)Nc1ccccc1OC | -0.874 | -1.8
CCSc1nnc(NC(=O)CC2OC(=O)c3ccccc32)s1 (stereo not given) | . | -1.3
c1cc(C2OCCO2)ccc1C1OCCO1 | -0.284 | -0.6
Cn1cnc2c(Cl)ncnc21 | -0.215 | -0.5
CCN(CC)c1ccc(CN2CCCC(CO)C2)cc1 (stereo not given) | -1.27 | -1.3
CCn1c(CNC(=O)c2ccc(C)cc2)nnc1SCC(=O)NCc1ccccc1 | -1.37 | -0.9
N#Cc1nc(-c2ccccc2F)oc1NCC1CCCO1 (stereo not given) | . | -0.1
NC(=O)C1C2C=CC(C2)C1C(=O)O (stereo not given) | . | 1.2
CC(C)NC(=S)NNc1ncc(C(F)(F)F)cc1Cl | . | 1.4
COc1ccc(CCNC(=O)c2ccc(-n3cncn3)cc2)cc1 | . | 1.8

The list continues.
Compound | KSHV LANA nucl | BasE inh
CC(Oc1ccc(C#N)cc1)C(=O)NN1C(C)CCCC1C (stereo not given) | . | -2.8
O=C(CSc1nc(=O)n(CCCN2CCOCC2)c2c1CCCC2)N1CCc2ccccc21 | -1.45 | 0.4
NC(=O)CSc1nnc2c(n1)[nH]c1ccc(Cl)cc12 | 0.374 | -0.1
COc1cc(/C=C2\SC(N3CCN(CCO)CC3)=NC2=O)ccc1OCc1ccccc1 | -0.769 | 1.4
Cc1sc(-c2cnn(-c3ccccc3)c2N)nc1-c1ccccc1 | . | -1.6
Cc1ccc(-c2noc(COC(=O)c3cccnc3SCC(=O)Nc3ccccc3OC(F)F)n2)cc1 | . | 1.4
CCN1C(=O)CSc2ccc(C(=O)NC3CCCCCCC3)cc21 | -0.683 | -1.8
CNC(=O)COC(=O)c1ccccc1OC | . | 2.9
O=C(Oc1ccc2ccccc2c1)c1ccccc1O | 0.147 | 0.1

Assay outcomes as filed in PubChem.

The list is partial; the hit share may differ from the screen's.
